# Compound activity as filed in PubChem BioAssay.
# Mtb H37Rv – M. tuberculosis H37Rv growth inhibitors, H37Rv strain (AID 1626). M. tuberculosis H37Rv growth inhibition; higher % means a stronger effect. inhibition, % at 10 µM, or IC50 in µM where a hit was titrated. 0.95% of 220,000 active;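 active means confirmed in a dose series; inconclusive means inhibition above 80% but not taken into the dose series; inactive means below 80% or under 30% at every dose of the series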;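 further: bacteria incubated seven days before Alamar blue readout; 0% = bacteria only wells and 100% = bacteria with antibiotic wells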
# Mtb bLac sens – beta-lactam sensitization of Mtb H37Rv; M. tuberculosis H37Rv growth with meropenem, percent inhibition; hits of this screen are not shown here; inhibition, % at 25 µM; 0.27% of 330,000 active; AID 434955;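 active means about 74% or more and at least 40 points above the plate without the antibiotic, then above 30% in a dose series; inconclusive means first-round hits that could not be retested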;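 further: growth measured after seven days incubation then overnight dye step; 0% = bacteria only wells and 100% = bacteria with antibiotic; twin plates without the antibiotic show which effects depend on it; some results filed as inactive read as strong as hits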
# RecA splice inh – inhibitors of M. tuberculosis RecA intein splicing; P9WHJ3; cell-free RecA intein splicing, fluorescence; inhibition, %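 (about 9 µM by stock and volumes)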; 0.75% of 290,000 active; AID 2221; in the data active means inhibition above about 30%; inconclusive means no clear call, values can overlap the other calls;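 further: 0% = vehicle wells and 100% = reference inhibitor control wells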
# Target sequence (P9WHJ3 whole entry, looked up, canonical isoform): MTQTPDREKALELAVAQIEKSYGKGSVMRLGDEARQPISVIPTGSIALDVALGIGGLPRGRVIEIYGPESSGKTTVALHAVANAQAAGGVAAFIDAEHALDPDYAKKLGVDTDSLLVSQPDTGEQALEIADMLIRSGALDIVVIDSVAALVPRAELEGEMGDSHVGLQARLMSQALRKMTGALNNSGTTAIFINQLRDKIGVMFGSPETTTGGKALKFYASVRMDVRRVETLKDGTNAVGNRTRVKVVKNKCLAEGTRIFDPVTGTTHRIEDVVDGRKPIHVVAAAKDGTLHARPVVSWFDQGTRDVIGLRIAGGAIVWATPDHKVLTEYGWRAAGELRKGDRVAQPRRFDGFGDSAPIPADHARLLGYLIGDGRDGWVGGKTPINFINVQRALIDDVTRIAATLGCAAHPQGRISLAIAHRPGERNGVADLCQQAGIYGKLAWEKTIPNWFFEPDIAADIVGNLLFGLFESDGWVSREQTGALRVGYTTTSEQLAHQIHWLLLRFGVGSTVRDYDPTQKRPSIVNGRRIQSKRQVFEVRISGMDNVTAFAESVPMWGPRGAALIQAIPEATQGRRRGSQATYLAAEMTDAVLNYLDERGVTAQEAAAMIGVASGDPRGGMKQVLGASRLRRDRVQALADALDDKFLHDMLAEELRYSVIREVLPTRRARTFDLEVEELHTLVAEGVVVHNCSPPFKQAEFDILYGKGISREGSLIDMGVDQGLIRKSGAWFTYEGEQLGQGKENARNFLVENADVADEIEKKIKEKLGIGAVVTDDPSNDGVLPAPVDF
# YopH PTP inh – YopH (Yersinia) phosphatase inhibition | inhibition, %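 (about 10 µM by stock and volumes)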 | 0.16% of 140,000 active | fluorescence Ex485/Em525 | AID 898;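 active means inhibition of 50% or more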;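 further: controls were vehicle for no effect and minimum signal wells for full effect; inactives centre near -20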
# Arbovirus inh – antivirals against arbovirus infection. arbovirus infection cell-based antiviral screen. inhibition, % at 10 µM. 0.37% of 200,000 active;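 active means inhibition from about 30%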;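 further: bluetongue infection of BSR cells; cell survival read as ATP light after 72 h; 0% = infected wells without compound and 100% = uninfected wells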
# Arbovirus inh repeat – further read-out of Arbovirus inh, marked with its call; inhibition, %; measured here: 10K subset replicate screen; many hits read low in the repeat;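 first of two repeat runs on a subset; 0% = infected and 100% = uninfected wells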
# The depositor's hits bear a star; ? = inconclusive; nt = no result given.
SMILES,Mtb H37Rv,Mtb bLac sens,RecA splice inh,YopH PTP inh,Arbovirus inh,others
COC(=O)C1=C(C)N(Cc2ccc(OC)cc2)C(=O)C1,-7%,-3,-0.6,-40,-2,
COc1cccc(OC(=O)N2CCOCC2)c1,8%,7,0.1,nt,1,
CCc1ccccc1NC(=S)N(CCc1ccncc1)C(C)C,2%,-1,1.8,nt,1,
CCCCOCCCNC(=O)/C=C/c1ccccc1Cl,5%,-4,3.8,-24,nt,
COc1cccc(NC(=O)NNC(=O)CCc2ccc(O)c(O)c2)c1,nt,5,-5.0,nt,nt,
O=C(O)C1CCC(=O)N1C(=O)OCc1ccccc1 (configuration not stated),-2%,-5,-1.2,nt,nt,
COc1ccc(CCC(=O)NC(C)C2CCCO2)cc1 (configuration not stated),nt,5,-0.7,nt,nt,
COc1ccc(S(=O)(=O)Nc2nncs2)cc1,-4%,-1,-0.8,-18,4,
CCCCc1nnc(NC(=O)CSCc2cc(=O)n3c(C)csc3n2)s1,nt,-7,-0.1,nt,nt,
O=C(NCc1ccccc1)C1C2C=CC3(CN(Cc4cccnc4)C(=O)C13)O2 (configuration not stated),-8%,4,0.8,-33,-1,
Cc1nn(Cc2nnc(SCC(=O)Nc3ccc(Cl)cc3)n2C)c(C)c1[N+](=O)[O-],-5%,3,-0.1,nt,nt,
COc1ccc(/C=C(\NC(=O)c2ccc([N+](=O)[O-])cc2)C(=O)N2CCOCC2)cc1,6%,-5,0.7,nt,-3,
O=C(Nc1nnc(C2CC2)s1)C1Cc2ccccc2CN1C(=O)c1ccco1 (configuration not stated),4%,-3,nt,nt,5,
CCOC(=O)N1CCC(NC(=O)c2ccc(NC(=O)C3CCCO3)cc2)CC1 (configuration not stated),-5%,?,-5.6,-34,9,Arbovirus inh repeat=6
CCc1c(C(=O)Nc2ccncc2)csc1C,0%,22,2.0,1,8,
CCOc1ccc(NC(=O)c2c(O)[nH]c(=O)[nH]c2=O)cc1,6%,52,-0.2,nt,nt,
COc1ccc(CNC(=O)[C@H](C)NC(=O)C2CCN(C(=O)[C@@H](N)Cc3ccccc3)CC2)cc1,nt,-5,-0.9,nt,nt,
CCC1CCc2sc(C(=O)NCc3ccccn3)cc2C1 (configuration not stated),nt,-1,2.1,nt,nt,
O=C(O)c1ccccc1OCC1CCCO1 (configuration not stated),nt,2,-6.8,nt,nt,
CC(C)(C#N)Cc1cc(CC(C)(C)C#N)cc(C(C)(C)C)c1,nt,-6,1.2,nt,nt,

# Fetched by compound from above:
SMILES,Mtb H37Rv,Mtb bLac sens,RecA splice inh,YopH PTP inh,Arbovirus inh,others
CCOC(=O)N1CCC(NC(=O)c2ccc(NC(=O)C3CCCO3)cc2)CC1 (configuration not stated),-5%,?,-5.6,-34,9,Arbovirus inh repeat=6
COc1cccc(OC(=O)N2CCOCC2)c1,8%,7,0.1,nt,1,
CCCCOCCCNC(=O)/C=C/c1ccccc1Cl,5%,-4,3.8,-24,nt,

# (cont.)
SMILES,Mtb H37Rv,Mtb bLac sens,RecA splice inh,YopH PTP inh,Arbovirus inh,others
O=C(c1cccc(S(=O)(=O)Nc2ccccc2F)c1)N1CCN(c2ccccc2F)CC1,2%,10,-0.6,nt,2,
COc1ccccc1CNC(=O)CCCNC(=O)c1ccc(Cl)cc1,nt,-5,-1.1,nt,nt,
O=C(C1=C[C@@H]2[C@H]3C(=O)N(c4cccc(Cl)c4)C(=O)[C@H]3[C@@H](C(=O)c3ccc(Cl)cc3)N2C=C1)c1ccccc1,2%,2,3.3,-16,-1,
Cn1cccc1CC(=O)NNC(=O)Nc1cccc(Cl)c1,3%,-9,0.4,-16,-5,
Cc1ccnc(NC(=O)c2ccc(Cl)c(NC(=O)C(C)Oc3ccccc3)c2)c1 (configuration not stated),4%,-1,0.7,nt,-6,
CCN(C(=O)COC(=O)c1cc(S(=O)(=O)N(C)C)ccc1Cl)C1CCS(=O)(=O)C1 (configuration not stated),nt,2,-0.8,nt,nt,
COc1ccccc1N1CCN(C(CNC(=O)c2ccco2)c2cccnc2)CC1 (configuration not stated),1%,-5,1.7,-4,-1,Arbovirus inh repeat=3
COc1ccc(CCNC(=O)COC(=O)c2cnc(C)cn2)cc1,-4%,-4,-1.2,-11,8,
CCC(=O)NC(=S)Nc1ccc(NC(=O)COc2ccc([N+](=O)[O-])cc2)cc1,71%,98,8.5,nt,6,
S=C(NCCc1ccccc1)NCc1ccccc1Cl,9%,7,4.8,-17,29,
COc1ccccc1CCC(=O)Nc1ccc(C)cc1Cl,6%,1,-0.1,nt,0,
COc1cccc(C(=O)N(C)CC2CCN(CCc3cccc(C(F)(F)F)c3)CC2)c1,nt,-4,-2.1,nt,nt,
CC(=O)N1c2ccc(S(=O)(=O)N3CCCCC3)cc2CC1C(=O)Nc1ccccc1C(F)(F)F (configuration not stated),nt,-10,-0.2,nt,nt,
Cc1cccc(NC(=O)C2CCC(CNC(=O)[C@@H]3Cc4ccccc4CN3)CC2)c1 (some centres not stated),nt,-7,0.3,nt,nt,
Cc1cc(NC(=O)CCC(=O)N(c2cccnc2)C(C(=O)NC2CCCC2)c2ccccc2)no1 (configuration not stated),7%,1,-0.2,-14,-3,
Cc1nc(C)n(C(=O)N(c2ccccc2)c2ccccc2)n1,2%,-9,1.6,8,3,
O=C(NCc1ccc2c(c1)OCO2)c1ccc(S(=O)(=O)N2CCCCC2)cc1,-6%,-1,-2.6,-32,-15,
Cc1ccc(C(=O)C(OC(=O)CN2C(=O)c3ccccc3C2=O)c2ccccc2)cc1 (configuration not stated),0%,-5,1.0,-42,1,
Cc1ccc(C)c(-n2c(SCC(=O)O)nc3sc4c(c3c2=O)CCCC4)c1,nt,8,-0.8,nt,nt,
O=C(CS(=O)c1ccccc1[N+](=O)[O-])Oc1ccc(Br)cc1 (configuration not stated),2%,5,27,nt,-5,
CCc1ccc2[nH]c(=O)c(C(c3nnnn3CC3CCCO3)N3CCN4CCCC4C3)cc2c1 (configuration not stated),5%,-2,1.8,-32,2,
CC(C)c1nnc(NC(=O)CCC(=O)N2CCN(Cc3ccccc3)CC2)s1,6%,-4,-3.7,-27,-4,
O=C(CSc1nc(-c2ccccc2)c(-c2ccccc2)[nH]1)N1CCN(S(=O)(=O)c2ccccc2)CC1,8%,6,0.3,5,-9,
O=CNCCCc1nc2ccccc2n1Cc1ccccc1,-7%,3,0.3,-18,5,
CCOC(=O)C1(CCOc2ccccc2)CCN(S(=O)(=O)N(C)C)CC1,nt,-6,2.2,nt,nt,
Cc1cc(C)n(-c2nc3c(c(=O)[nH]c(=O)n3C)n2CC(O)COc2ccccc2)n1 (configuration not stated),6%,5,1.3,-52,6,
CC(C)Cn1c(SCC(=O)Nc2cccc(S(N)(=O)=O)c2)nc2ccccc2c1=O,9%,0,6.7,nt,2,
CCN1CCN(C(=O)C2CCN(S(=O)(=O)c3ccc(SC)cc3)CC2)CC1,nt,1,-0.3,nt,nt,
Cc1nn2c(=S)[nH]nc2[nH]c1=O,-4%,-1,-1.7,nt,-3,
CC(=O)N1CCN(c2ccc(NC(=O)c3ccc(Cl)c([N+](=O)[O-])c3)cc2)CC1,nt,-2,-2.0,nt,nt,
O=C(Oc1ccccc1)c1cc2ccccc2oc1=O,6%,-4,-0.5,nt,20,
COc1ccc(N2C(=O)C3CCCN3C2c2cc(OC)c(OC)cc2OC)cc1 (configuration not stated),0%,-1,2.6,-36,10,Arbovirus inh repeat=3
CCC(C)Nc1nc(N)c([N+](=O)[O-])c(N2CCCCCC2)n1 (configuration not stated),nt,0,5.5,nt,nt,
COc1cccc(CN(C)C(=O)c2ccc3c(=O)n4c(nc3c2)CCC4)c1,nt,-5,-3.1,nt,nt,
Cc1[nH]c2ccccc2c1SCC(=O)N1CCCc2ccccc21,-1%,-10,5.3,-40,8,
N#Cc1cnc(Nc2nc3ccccc3o2)nc1-c1ccccc1,79%,81,-1.7,-8,-10,
CCC(=O)Nc1c(-c2ccc(OC)cc2)c(=O)c2ccccc2n1C,-6%,-7,0.2,6,5,
COc1ccc(CNC(=O)Nc2cccc(Cl)c2)cc1,nt,-1,-2.2,nt,nt,
Cc1ccc(N(C(=O)CNC(=O)c2ccco2)C(C(=O)NC2CCCCC2)c2cccnc2)cc1F (configuration not stated),nt,-11,-2.3,nt,nt,
CCCCOC(=O)COc1cc(C)cc2oc(=O)c3c(c12)CCC3,-2%,?,-1.3,-13,3,

# Continued, starting with the last three of the part before.
SMILES,Mtb H37Rv,Mtb bLac sens,RecA splice inh,YopH PTP inh,Arbovirus inh,others
COc1ccc(CNC(=O)Nc2cccc(Cl)c2)cc1,nt,-1,-2.2,nt,nt,
Cc1ccc(N(C(=O)CNC(=O)c2ccco2)C(C(=O)NC2CCCCC2)c2cccnc2)cc1F (configuration not stated),nt,-11,-2.3,nt,nt,
CCCCOC(=O)COc1cc(C)cc2oc(=O)c3c(c12)CCC3,-2%,?,-1.3,-13,3,
CCOC(=O)N1CCN(C(=O)C2CCCN(S(=O)(=O)c3cccnc3)C2)CC1 (configuration not stated),-13%,3,-0.4,-29,9,
Nc1ccc2oc(=O)c(-c3ccccc3)cc2c1,nt,0,-2.1,nt,nt,
CCOC(=O)C1=C(C)Nc2nnnn2C1c1cccc(OC)c1OC (configuration not stated),-19%,-4,-0.3,-33,2,
Cc1ccc(Cn2nc(C)c(NC(=O)c3nn(C)cc3Cl)c2C)cc1,-3%,-20,-1.9,-2,2,
O=C(NCCc1c[nH]c2ccccc12)C(=O)NCC1OCCCN1S(=O)(=O)c1ccccc1 (configuration not stated),-4%,2,0.0,-41,-8,
CCCC1(c2ccccc2)NC(=O)N(CC(=O)Nc2cc(OC)cc(OC)c2)C1=O (configuration not stated),nt,-7,1.9,nt,nt,
CC(C)(C)c1ccc(C(=O)NNC(=O)c2cccc(Br)c2)cc1,0%,30,-0.9,15,-6,
CCc1ccc(/C=N/N2CCN(c3ccccn3)CC2)cc1,-11%,-10,0.2,nt,nt,
COC(=O)C(C(=O)Nc1ncccn1)C1CCCCCC1 (configuration not stated),-5%,-6,-2.0,11,-4,
COc1ccc(-c2n[nH]c(C)c2-c2cnn(-c3ccccc3)c2)c(O)c1C,-5%,2,-2.2,-25,-35,
CCCN1CCN(CCCNC(=O)c2ccc3c(c2)NC(=O)c2ccccc2S3)CC1,nt,-2,-1.0,nt,nt,
CC(=O)Nc1ccc(/C=C(\C#N)C(=O)NCc2ccccc2)cc1,-3%,2,-1.1,17,3,
O=C(NC1CCOc2ccccc21)C1CCCC1 (configuration not stated),nt,0,-1.2,nt,nt,
CCOC(=O)Cc1nc2ccccc2n(CC#N)c1=O,-3%,-1,0.1,nt,-1,
COc1ccc(/C=N/NC(=O)c2cccc([N+](=O)[O-])c2)cc1OC(=O)c1ccccc1,1%,-3,7.4,-11,-3,
O=C(O)CC12CC3CC(C1)CC(n1ncc(N4CCC5(CC4)OCCO5)c(Cl)c1=O)(C3)C2,1%,-4,0.9,nt,nt,
O=C(O)C1C2CCC(O2)C1C(=O)NC1CCCCC1 (configuration not stated),5%,11,-1.9,-9,5,
O=c1c(Cl)c(Cl)cnn1Cc1ccc(F)cc1,34%,97,35*,nt,-36,
CC1CCN(S(=O)(=O)c2c[nH]c(=O)[nH]c2=O)CC1,nt,-8,-4.3,nt,nt,
Cc1ccc(C2(C)NC(=O)N(CC(=O)Nc3ccc(S(=O)(=O)Nc4nccs4)cc3)C2=O)cc1 (configuration not stated),nt,3,-0.3,nt,nt,
O=C(O)c1ccc(-n2ccnc2)c([N+](=O)[O-])c1,-6%,-2,-15,-28,6,
C/C(=N\NC(=O)C1CC1)c1ccc(Cl)c(Cl)c1,-1%,-2,-1.9,-10,-2,
O=C(NCCCc1ccccc1)c1ccccc1O,-8%,1,0.4,-20,-1,

# 7 successive compounds already listed:
SMILES,Mtb H37Rv,Mtb bLac sens,RecA splice inh,YopH PTP inh,Arbovirus inh,others
O=C(O)C1C2CCC(O2)C1C(=O)NC1CCCCC1 (configuration not stated),5%,11,-1.9,-9,5,
O=c1c(Cl)c(Cl)cnn1Cc1ccc(F)cc1,34%,97,35*,nt,-36,
CC1CCN(S(=O)(=O)c2c[nH]c(=O)[nH]c2=O)CC1,nt,-8,-4.3,nt,nt,
Cc1ccc(C2(C)NC(=O)N(CC(=O)Nc3ccc(S(=O)(=O)Nc4nccs4)cc3)C2=O)cc1 (configuration not stated),nt,3,-0.3,nt,nt,
O=C(O)c1ccc(-n2ccnc2)c([N+](=O)[O-])c1,-6%,-2,-15,-28,6,
C/C(=N\NC(=O)C1CC1)c1ccc(Cl)c(Cl)c1,-1%,-2,-1.9,-10,-2,
O=C(NCCCc1ccccc1)c1ccccc1O,-8%,1,0.4,-20,-1,

# A portion of the library. The share of hits here may be higher or lower than overall.
